Bioassay records as filed in PubChem.
GIV-Gai inh – inhibitors of GIV peptide binding to Galpha-i3, primary screen, biochemical, fluorescence polarization, FITC-GIV GBA peptide, rat Galphai3. percent of control (FP), % (concentration not given with the values). Guanine nucleotide-binding protein G(i) subunit alpha-3 (Rattus norvegicus), P08753. 90 min; stronger effect = lower value; scaled: aluminum fluoride 0%, vehicle 100%. AID 1224905, 2016. 210,000 tested, 0.42% active;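 active = replicate mean at 85% of control or lower, very high polarization wells dropped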;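 note: wells of about 15 µL received 100 nL stock; the first replicate is given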
Target sequence (P08753 whole entry, looked up): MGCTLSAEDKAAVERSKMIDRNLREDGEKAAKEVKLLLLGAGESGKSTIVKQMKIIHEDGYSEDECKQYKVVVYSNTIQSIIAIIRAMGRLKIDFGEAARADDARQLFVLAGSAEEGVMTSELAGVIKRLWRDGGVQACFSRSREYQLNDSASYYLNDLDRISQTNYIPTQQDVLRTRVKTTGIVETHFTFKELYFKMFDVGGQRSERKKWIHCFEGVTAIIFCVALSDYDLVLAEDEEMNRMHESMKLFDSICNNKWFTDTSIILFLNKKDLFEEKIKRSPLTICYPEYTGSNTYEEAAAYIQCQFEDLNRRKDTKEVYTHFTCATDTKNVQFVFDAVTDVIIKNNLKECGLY
Starred values were filed as active, the others as inactive. Some of the compounds tested; rates above refer to the full screens.

SMILES,GIV-Gai inh
CCCCC(=O)Nc1cc(Cl)ccc1OCc1cc(=O)n2cc(C)sc2n1,113.0
CC(C)c1ccc(C#N)c(SCC(=O)Nc2ccccc2C(=O)O)n1,101.6
Cn1c(=O)c2nc(SCc3cccc(F)c3)n(C)c2n(C)c1=O,96.3
C=CCc1ccc(OCCOc2ccc(Cl)cc2-c2nc3sc4c(c3c(=O)[nH]2)CCCC4)c(OC)c1,102.5
c1cc2c(cc1C13CC4CC(CC(C4)C1)C3)c1c3n2CCNC3CCC1 (centres undefined),109.9
COc1ccc(NC(=O)N2CCc3c(c(-c4nnc(-c5ccc(F)cc5)o4)nn3C)C2)cc1OC,101.9
O=C(Nc1cc(C(=O)N2CC=C(c3ccccc3)CC2)ccc1N1CC2CC(C1)c1cccc(=O)n1C2)c1cccnc1 (centres undefined),129.0
CCCCCOc1ccc(N2C(=O)CSC23C(=O)N(CN2CCC(Cc4ccccc4)CC2)c2ccccc23)cc1 (centres undefined),103.9
CC1CCN(C(=O)c2nc(N3CCSCC3)c3cn(C)nc3n2)CC1,102.8
CCOc1ccccc1NC(=O)c1c(NC(=O)c2ccccc2F)sc2c1CCCCC2,100.7

Next part:
SMILES,GIV-Gai inh
CCC(=O)Nc1sc2c(c1C(=O)Nc1ccc(C)cc1)CCC2,107.8
CCC(=O)Cc1nnc2c(Nc3ccc(Cl)cc3)nc3nonc3n12,117.3
COc1ccc(OC)c(N2C(N)=C(C#N)C(c3ccc(OC)c(O)c3)C3=C2CC(C)(C)CC3=O)c1 (centres undefined),104.7
CCOC(=O)c1[nH]c(C)c(CN(C(=O)NC2CCCC2)C2CCCCC2)c1C,107.2
CC(C)(C)NC1=NCCNC12CCN(S(=O)(=O)c1ccc(Cl)cc1)CC2,102.1
Oc1ccc(-c2nc(-c3ccc(C#Cc4ccccc4)cc3)c(-c3ccc(C#Cc4ccccc4)cc3)[nH]2)cc1,107.4
Cc1cc2nc3s/c(=C/c4cn(Cc5ccccc5)c5ccccc45)c(=O)n3c2cc1C,120.7
O=C(c1cn2c(n1)CSCC2)N1CCOCC1,98.2
CCCc1cc(Sc2ccc(NS(=O)(=O)c3cccc4nsnc34)cc2)n2ncnc2n1,102.9
O=[N+]([O-])c1ccc(-c2ccc(-c3nc(-c4c5ccccc5c(Cl)c5ccccc45)[nH]c3-c3ccccc3)cc2)cc1,108.3

Next section.
SMILES,GIV-Gai inh
Oc1ccc2cc(-c3nc(-c4ccc(Cl)cc4)cs3)c(=Nc3ccccc3)oc2c1,143.2
Cn1cnc2cc(-c3noc(Cc4ccccc4Br)n3)ccc21,103.8
COC(=O)C1=C(C(=O)OC)SC2(S1)C(C(=O)OC)=C(C(=O)OC)SC1=C2c2cccc(OC)c2N(C(=O)Cc2ccccc2)C1(C)C,104.5
COc1ccc(C2=N/C(=C/c3cc(OC)c(OC)cc3OC)C(=O)O2)cc1Br,104.4
CC(=O)C1=NN(c2ccccc2)C(c2ccccc2OCc2c(Cl)cccc2Cl)N1C(C)(C)C (centres undefined),109.3
O=C(COc1ccc(Cl)cc1)Nc1cccc(OCc2cc(=O)n3ccccc3n2)c1,106.1
O=C1C(=O)N(c2ccccn2)C(c2ccc(F)cc2)/C1=C(\O)c1ccc(Br)cc1 (centres undefined),107.4
Cc1ccc(C)c(NC(=O)C(Cc2c[nH]c3ccccc23)NC(=O)OCc2ccccc2)c1 (centres undefined),109.8
CCN(CC)C(=O)c1ccc(-c2nc3cc(NS(=O)(=O)c4ccc(C)cc4)ccc3n2C)cc1,102.2
COc1cccc(C2Nc3ccc(Cl)cc3[C@H]3OCCC[C@@H]23)c1OC (some centres undefined),102.6

(next part)
SMILES,GIV-Gai inh
Cn1c(=O)n(Cc2cccnc2)c(=O)c2cnc(-c3ccncc3)nc21,100.1
COc1ccc2nc(N3CCOCC3)c(/C=C3/C(=O)NC(=S)N3C(C)=O)cc2c1,98.5
CCOc1ccc(N2COc3ccc4c(C)cc(=O)oc4c3C2)cc1,101.7
Clc1ccc(C2=Nn3c(nnc3-c3cccc(Br)c3)SC2)cc1,110.7
COc1ccc(Br)cc1C1=N/C(=C\c2ccc(OC)c(OC)c2OC)C(=O)O1,125.5
CCOC(=O)/C=C1\NC(C)(C)Cc2ccccc21,99.2
CN(Cc1ccc(Cl)cc1)Cc1cc(=O)n2nc(C3CC3)sc2n1,103.9
CCCCC(=O)N1c2ccc(C)cc2-c2c(ssc2=S)C1(C)C,115.5
COc1ccc(S(=O)(=O)N2CCC[C@@H]2C(=O)NCCc2csc(C)n2)cc1,103.9
CCCc1cc(Sc2ccccc2N)n2ncnc2n1,99.5

Following part.
SMILES,GIV-Gai inh
CC(C)(C)c1ccc(CSc2nc3cc(C(=O)NCC4CCCO4)ccc3c(=O)n2Cc2ccco2)cc1 (centres undefined),106.4
CCc1ccc(S(=O)(=O)c2cnc(N3CCN(c4ccccc4F)CC3)nc2N)cc1,99.2
O=C(c1cc2ccccc2[nH]1)N1CCN(C(=O)c2ccccc2Br)CC1,102.7
COc1ccc(C(=O)CSc2nc(-c3cccnc3)cc(C)c2C#N)cc1,116.3
O=C(CSc1nc2ccccc2c(=O)n1CCC(=O)N1CCN(c2ccccc2)CC1)NCCC1=CCCCC1,116.0
Cc1c(Cl)cccc1-n1c(SCC(=O)Nc2cccc(C(F)(F)F)c2)nc2n[nH]c(C)c2c1=N,107.8
CC(=O)Nc1onc(C)c1-c1ccc(C)c(S(=O)(=O)Nc2cccc(Cl)c2)c1,99.5
CCc1ccc(NS(=O)(=O)c2cc(-c3nc(C)c(C)s3)sc2C)cc1,101.1
CCOc1c(Br)cc(C2Nc3ccc(C)cc3[C@H]3OCC[C@@H]23)cc1OC (some centres undefined),98.5
CCOc1ccc(N2C(=O)/C(=C\c3ccc4c(c3)OCO4)S(=O)(=O)C2c2cccc([N+](=O)[O-])c2)cc1 (centres undefined),108.5

Next part
SMILES,GIV-Gai inh
CC(C)(C)NC(=O)N1CCCN(S(C)(=O)=O)CC1,98.6
CCOC(=O)c1c(C)c(CCC(=O)N2CCCC2)n(C)c1C,107.1
Cc1nn(-c2ccc3nnc(C)n3n2)c(C)c1CCC(=O)Nc1ccc(F)cc1F,97.0
Cc1cc(Nc2ccccc2)nc(N2CCN(C(=O)Nc3ccc(Cl)cc3)CC2)n1,102.0
Cc1ccc(C(=O)[C@@H]2[C@H]3C4COC(O4)C(=O)[C@@H]3[C@H]3C=Cc4ccccc4N32)cc1 (some centres undefined),159.9
COc1cccc(-c2cn3c4c(=O)n(C)c(=O)n(C)c4nc3n2Cc2ccccc2)c1,103.1
NC(=O)C1CCN(C(=O)c2ccc3c(=O)n(C4CCCCC4)c(SCC(=O)c4ccc(Cl)cc4)nc3c2)CC1,102.9
CCCn1cnc2cc(-c3noc(-c4ccnn4C)n3)ccc21,96.0
O=C1CN(Cc2ccc(F)cc2Cl)S(=O)(=O)c2ccccc2N1Cc1ccc(F)cc1,107.4
CNC(=O)Nc1ccc(C2(C(=O)NCC3CCCO3)CCC2)cc1 (centres undefined),96.6

Additional structures
SMILES,GIV-Gai inh
COc1cc(N2C=C(C#N)S(=O)(=O)c3ccc(Cl)cc32)cc(OC)c1OC,97.4
COC(=O)c1ccc(C2Oc3c(OC)cccc3C3CC(c4ccc(OC)cc4)=NN32)cc1 (centres undefined),110.0
O=CC12c3ccccc3C(c3ccccc31)C1C(=O)N(c3ccc(Cl)cc3)C(=O)C12 (centres undefined),103.1
CCCC(=O)Nc1sc2c(c1C(=O)Nc1ccccc1)CCC2,115.7
Cc1cc(N2CCN(C3c4ccccc4-c4ccccc43)CC2)n2c(nc3ccccc32)c1C#N,112.7
Cc1cc(C)n(-c2nnc(C)n2/N=C/c2ccc(Cl)cc2Cl)n1,106.3
O=C(Nc1cc(-c2ccccc2)nn1-c1ccccc1)c1ccc(Br)cc1,109.4
Cc1ccc(CNC(=O)C2CCCN(c3nc4nc[nH]c(=O)c4s3)C2)o1 (centres undefined),134.4
CCOc1ccccc1-n1c(SCc2cccc(F)c2)nc2[nH]ncc2c1=O,103.7
CCCSCCCNC(=O)Cn1c(=O)c(=O)n(C)c2ncccc21,98.9

(list continues)
SMILES,GIV-Gai inh
Cc1ccc(Cn2c(CNC(=O)c3ccc4c(c3)OCO4)nc3cccnc32)cc1,122.3
COc1ccccc1N1CCN(c2ncc(S(=O)(=O)c3ccc(C)c(C)c3)c(N)n2)CC1,107.9
O=C(NC1CCCC1)c1nn2c(C(F)(F)F)cc(-c3ccco3)nc2c1Br,103.0
CCc1ccccc1N1C(=O)C2C(c3ccccc3)CCC(c3ccccc3)C2C1=O (centres undefined),105.4
CCOC(=O)c1[nH]c(C)c(CCC(=O)N2CCCC(C(=O)NCCc3c(C)nn(CC)c3C)C2)c1C (centres undefined),100.6
Cc1csc(-c2cc(S(=O)(=O)N3CCN(c4cccc(Cl)c4)CC3)c(C)s2)n1,129.3
Cc1ccc(CSCCNC(=O)CN(c2cc(C(F)(F)F)ccc2Cl)S(C)(=O)=O)cc1,109.4
CC1(C)CC(=O)C2=C(C1)Nc1ccccc1N(CC(=O)NCC1CCCO1)C2c1ccccc1 (centres undefined),102.5
COc1cc2c(cc1OC)C1(CCCC1)CN=C2C,112.5
O=C(Nc1ccc(-c2noc(Cc3ccc(Cl)cc3)n2)cc1)c1ccco1,110.2

(further entries)
SMILES,GIV-Gai inh
Fc1ccc(CSc2nc(NCC3CCCO3)c3ccccc3n2)cc1 (centres undefined),119.6
CCOC(=O)c1ccccc1NC(=O)CSc1nnc2[nH]c(=O)cc(-c3ccccc3)n12,104.0
CCOC(=O)c1c(C)oc2ccc(N(C(=O)c3ccccc3)S(=O)(=O)c3ccc(Cl)cc3)cc12,106.3
CCc1ccc(C2=NN(c3ccccc3)C3(SC(C(C)=O)=NN3c3cccc(Cl)c3C)c3ccccc32)cc1 (centres undefined),105.6
O=C1C2C(C(=O)N1c1ccc(F)cc1)N1CCCN1C2c1ccccc1 (centres undefined),120.9
CC(C)(C)CC(=O)N1CCNC(=O)C1(C)C,95.8
Cc1cc(Cl)ccc1NS(=O)(=O)c1cc(-c2cc(C(F)(F)F)on2)sc1C,95.3
Cc1ccc(S(=O)(=O)N2CCCN(S(=O)(=O)c3ccc(C)cc3)CCN(S(=O)(=O)c3ccc(C)cc3)CCCN(S(=O)(=O)c3ccc(C)cc3)CC2)cc1,107.3
Cc1cccc(NC(=O)Nc2ccc(-c3nnc(-c4ccccc4)o3)cc2)c1C,106.6
N#Cc1c(-c2ccccc2)cc(-c2cccs2)nc1SCC(N)=O,105.7

New compounds follow.
SMILES,GIV-Gai inh
COc1cccc2cc(-c3csc(Nc4ccc(Oc5ccc(Cl)cc5)cc4)n3)c(=O)oc12,103.1
CCC(=O)Nc1ccc(-c2cc(C(=O)NC3CCCC3)c3ccccc3n2)cc1,101.0
Cn1c(=O)c2[nH]c(-c3ccc(F)c(Br)c3)nc2n(C)c1=O,102.2
CN(c1ccccc1)S(=O)(=O)c1ccc(C(=O)Nc2sc3c(c2-c2nc4ccccc4s2)CCCC3)cc1,107.8
Cn1c(=O)n(Cc2ccc(Cn3c(=O)c4c(ncn4Cc4ccccc4)n(C)c3=O)cc2)c(=O)c2c1ncn2Cc1ccccc1,108.3
COc1ccc(C2C(C(=O)c3ccc(Cl)cc3)N3c4ccccc4C=CC3C2(C#N)C#N)cc1OC (centres undefined),126.3
COc1ccc(NC(=O)c2sc3nc4c(c(-c5ccco5)c3c2N)CCCC4)cc1,83.8*
CCOC(=O)CNc1nc(Cl)nc(N2CCSCC2)n1,102.1
Cc1ccccc1CNC1=NCCNC12CCN(S(=O)(=O)c1ccccc1C)CC2,103.8
O=S(=O)(c1cc(-c2nnc(C3CC3)o2)co1)N1CCC(N2CCCCC2)CC1,102.0

3 of these compounds, set out differently.
Cn1c(=O)n(Cc2ccc(Cn3c(=O)c4c(ncn4Cc4ccccc4)n(C)c3=O)cc2)c(=O)c2c1ncn2Cc1ccccc1
  GIV-Gai inh = 108.3
COc1ccc(C2C(C(=O)c3ccc(Cl)cc3)N3c4ccccc4C=CC3C2(C#N)C#N)cc1OC (centres undefined)
  GIV-Gai inh = 126.3
COc1ccc(NC(=O)c2sc3nc4c(c(-c5ccco5)c3c2N)CCCC4)cc1
  GIV-Gai inh = 83.8*

The list goes on.
SMILES,GIV-Gai inh
CC1(C)CC(=O)C2=C(C1)NC1=C(C(=O)CC(C)(C)C1)C2c1ccccc1O,105.5
CC1CCN(c2nccc(C(=O)N3CCN(C4CCCCC4)CC3)n2)CC1,96.9
Cc1ccc(-c2nc3n(c2CNC(=O)c2ccc(Br)cc2)CCS3)cc1,97.5
CCOc1cc(-c2ccccc2)nc2ccc(NS(=O)(=O)c3ccc(OC)c(OC)c3)cc12,105.8
CC1(CNS(=O)(=O)c2ccc(F)cc2F)CCOCC1,100.9
CCc1ccc(N2C(=O)/C(=C/c3cc(Cl)c(O)c(OC)c3)C(=O)NC2=S)cc1,119.6
Cc1ccc(N2C(=O)CSC2c2cc3c(cc2Br)OCO3)cc1 (centres undefined),103.7
CC1CC(=O)N(Cc2ccccc2)c2ccccc2N1C=O (centres undefined),106.3
COc1cc(C2C3=C(CC(C)(C)CC3=O)Nc3c2ccc2ccccc32)cc(Br)c1O (centres undefined),123.0
COc1ccc(C2C(C(=O)OCC3CCCO3)=C(C)NC3=C2C(=O)CCC3)cc1OCc1ccccc1 (centres undefined),102.2

Remaining list, next part
SMILES,GIV-Gai inh
CC(C)COC(=O)NCC12C=CC(O1)C1C(=O)N(c3ccc(Cl)cc3)C(=O)C12 (centres undefined),114.7
O=C(COC(=O)CSc1nc(-c2ccccc2)cc(-c2ccccc2)n1)NC1CCCCC1,103.2
Cc1ccc2c(c1)C(c1ccc(Cl)cc1Cl)CC(=O)N2 (centres undefined),103.7
Fc1ccc(CSc2nc3ccccc3n3nnnc23)cc1,97.2
O=C(Nc1cc(C(=O)N2CCN(c3ccccc3)CC2)ccc1N1CC2CC(C1)c1cccc(=O)n1C2)c1ccc(F)cc1 (centres undefined),104.7
